# HNF4A DNA FP – change in binding of human HNF4 alpha to DNA | activity change, % at 10 µM | AID 1224865 | P41235 | HNF4a-FITC DNA binding, fluorescence polarization, 1 h | 360,000 compounds, 0.3% hits; in the data active means activity change above about 30%, passing the limit was not always enough;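 further: controls were the assay level and a saturating level of protein; the project sought stronger binding though the title names inhibitors; some compounds called inactive have numbers as strong as hits; positive values seem to mean higher polarization but the record does not say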
# Ecoli growth – inhibitors of Escherichia coli growth | OD600, 23 h; hits give low values | OD600 absorbance (concentration not given with the values) | 330,000 compounds, 0.21% hits | AID 1053175;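 active means OD600 absorbance below the run mean of sample wells minus 3.6 SD, in any replicate, cut at about 0.56 in these data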;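 further: stock transfer was 300 nL into about 60 µL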
# UCH37 DUB inh – blocks the human deubiquitinase UCH37. 330,000 compounds, 0.33% hits. inhibition, % (no concentration beside the values). purified proteasome/UCH37, Ub-AMC cleavage fluorescence. Q9Y5K5. AID 588478;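 active means mean of two replicates above 20%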;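 further: 0% = compound-free wells with enzyme and 100% = wells lacking proteasome; stock transfer was 100 nL into about 20 µL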
# Target sequence (Q9Y5K5 whole entry, looked up): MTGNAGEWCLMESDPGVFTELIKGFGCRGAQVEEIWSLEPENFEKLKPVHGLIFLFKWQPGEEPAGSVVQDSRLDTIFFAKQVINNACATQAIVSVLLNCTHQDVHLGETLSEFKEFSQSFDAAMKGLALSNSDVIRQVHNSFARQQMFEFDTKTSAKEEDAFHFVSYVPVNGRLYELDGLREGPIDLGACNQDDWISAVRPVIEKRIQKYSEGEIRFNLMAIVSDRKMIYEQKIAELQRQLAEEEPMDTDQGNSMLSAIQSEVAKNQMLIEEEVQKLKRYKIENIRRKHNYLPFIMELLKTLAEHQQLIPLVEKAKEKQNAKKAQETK
#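 assay system = human UCH37 enzyme supplied as purified proteasome complex | amount = proteasome at 0.15 nM in the dispensed enzyme solution | schedule = 30 min compound-proteasome preincubation then 25 min substrate reaction, room temperature | measured by = fluorescence, ex 355 nm, em 460 nm | benchmarks = no-proteasome wells (full inhibition) and compound-free wells (no inhibition)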
# ALR inh – blocks human ALR sulfhydryl oxidase activity; purified ALR, DTT oxidation, H2O2 HRP-luminol luminescence; inhibition, % (test concentration not listed); 290,000 compounds, 3.8% hits;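 active means mean and each replicate at 75% or more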;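 further: stock transfer was 7.5 nL into about 7.5 µL; 0% = neutral wells and 100% = wells with inactivated enzyme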
# FGF22 binding – FGF22 (human) thermal shift binding. Q9HCT0. calls only at 9.99 µM. recombinant FGF22 thermal shift, SYPRO orange fluorescence; percent of sucrose octasulfate shift, DMSO zero. 340,000 compounds, 1.5% hits;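 active means melting point raised past a set limit in the mean and every replicate; three in four hits are not shown here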
# Target sequence (Q9HCT0 whole entry, looked up): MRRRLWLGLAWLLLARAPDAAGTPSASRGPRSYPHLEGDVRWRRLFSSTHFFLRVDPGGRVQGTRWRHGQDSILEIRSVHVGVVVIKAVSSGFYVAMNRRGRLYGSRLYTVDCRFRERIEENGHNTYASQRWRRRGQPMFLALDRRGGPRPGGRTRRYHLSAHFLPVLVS
# B2AR ag – activates human beta-2 adrenergic receptor causing internalization | P07550 | Am2.2-beta2AR cells, FAP receptor internalization, flow cytometry; reference of the scale not given here | response, % (test concentration not listed) | 340,000 compounds, 0.43% hits;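 active means response above a set limit, near 3 SD of response in nonfluorescent compounds, cut at about 42% in these data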;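 further: stock transfer was 100 nL into about 11 µL; a reference agonist was the positive control; negative values mostly stem from fluorescent compounds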
# Target sequence (P07550 whole entry, looked up): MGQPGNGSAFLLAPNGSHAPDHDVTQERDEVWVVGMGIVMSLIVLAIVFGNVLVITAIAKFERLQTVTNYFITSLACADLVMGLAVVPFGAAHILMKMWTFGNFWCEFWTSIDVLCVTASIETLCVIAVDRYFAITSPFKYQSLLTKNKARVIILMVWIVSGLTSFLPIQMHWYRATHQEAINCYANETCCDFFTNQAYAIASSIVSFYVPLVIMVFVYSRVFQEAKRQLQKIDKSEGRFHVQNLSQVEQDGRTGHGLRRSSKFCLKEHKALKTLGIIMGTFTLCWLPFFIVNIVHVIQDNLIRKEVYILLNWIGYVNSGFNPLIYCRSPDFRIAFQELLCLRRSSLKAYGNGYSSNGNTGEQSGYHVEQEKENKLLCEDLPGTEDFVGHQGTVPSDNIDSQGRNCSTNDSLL
# Ecoli rRNA inh – inhibitors of bacterial rRNA selective over humanized ribosomes; E. coli WT GFP vs humanized-ribosome RFP mutants, fluorescence, 24 h; hits give low values; DMSO median 0, no signal -100; GFP signal change (wild-type ribosome), % (concentration not given with the values); 350,000 compounds, 1.6% hits;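 active means significant combined selectivity score with lowered wild-type GFP, culture density cut under 30%, mutant RFP and density less affected; inactive means any of these conditions unmet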; further: one replicate is shown; some compounds called inactive have numbers as strong as hits
# Ecoli rRNA inh OD600 – second read-out of Ecoli rRNA inh, no call of its own (marks repeat the call); OD600 change, %; measured here: OD600 growth;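 optical density of the mix in the first replicate; 0 = DMSO median and -100 = no signal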
# Ecoli rRNA inh RFP – further read-out of Ecoli rRNA inh, marked with its call; RFP signal change, %; measured here: RFP humanized mutant strains;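 first replicate; 0 = DMSO median and -100 = no signal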
# * hit, by the source's call; i = inactive; . = no result given.
SMILES	HNF4A DNA FP	Ecoli growth	UCH37 DUB inh	ALR inh	FGF22 binding	B2AR ag	Ecoli rRNA inh	Ecoli rRNA inh OD600	Ecoli rRNA inh RFP
CC(OC(=O)CN1C(=O)NC(C)(C)C1=O)C(=O)c1ccccc1 (stereo not drawn)	-1.1	0.71	-0.9	-6	.	1	.	.	.
COc1cc(CNC(C)C)ccc1OCC(=O)Nc1cccc2ccccc12	4.9	0.73	0.6	-4	i	9	3	3	1.8
COc1ccc2c(c1O)Cc1ccccc1C2=O	9.1	0.7	3.4	-1	.	-2	.	.	.
CC(=NNC(N)=S)c1ccc2cc3c(cc2c1)OCO3	5.0	.	.	.	i	.	-2	-10	-4.0
N#CC1=C(S)N(c2ccc(F)cc2)C(c2ccco2)NC1=O (stereo not drawn)	2.6	0.68	3.5	.	i	-4	-11	-7	2.8
COC(=O)c1sccc1NC(=O)CC1C(=O)NCCN1C(=O)Nc1ccc(F)cc1F (stereo not drawn)	0.7	0.7	1.4	-7	i	-3	0	2	-3.3
COc1ccc2[nH]c(=O)c(CN(Cc3cccs3)S(=O)(=O)c3c(C)ccc4nsnc34)cc2c1	-27	0.68	0.3	-3	.	15	.	.	.
CC(=O)N/N=C(\C)CC(=O)NC(C)(C)C	0.7	.	.	-10	i	3	14	-5	1.3
COc1cc2c(cc1OC)CN(Cc1cc(=O)oc3cc(C)c(Cl)cc13)CC2	-1.8	0.7	-11	-11	.	-7	.	.	.
O=C(/C=C/c1cccc([N+](=O)[O-])c1)Nc1ccc(NC(=O)c2cccs2)cc1	0.1	0.71	7.0	.	.	-11	.	.	.
CCCOc1ccc(/C=C/C(=O)N2CCN(c3ccccn3)CC2)cc1	-0.9	0.69	3.9	-6	i	-2	-9	6	-3.1
CCC(CC)C(=O)Nc1cccc(C(=O)NCc2ccco2)c1	-2.1	0.69	3.8	5	.	-1	.	.	.
COc1ccc(C(=O)CSc2nnc(CCc3ccccc3)n2-c2ccccc2)cc1	-0.4	0.72	-0.9	1	.	7	.	.	.
Clc1ccc2nc(N3CCCCC3)[nH]c2c1	0.3	0.7	5.6	98*	.	-2	.	.	.
CCc1ccc(N2CCN(C(=O)c3ccc(OC)c(OC)c3)CC2)cc1	-1.6	0.77	1.0	32	i	2	-10	-12	-1.5
Nn1c(SCC(=O)NC(=O)NCc2ccco2)nnc1-c1ccc(OC(F)F)cc1	-5.5	0.76	0.2	2	.	-3	.	.	.
C=CCN(C(=O)CCC(=O)Nc1cc(C)on1)C(C(=O)NC(C)(C)C)c1cccc(OC)c1OC (stereo not drawn)	-1.4	0.71	1.1	.	.	2	.	.	.
CCOC(=O)CNC(=O)CSc1nc(-c2ccc(OC)cc2)ns1	2.8	0.67	0.2	-6	.	8	-7	-16	-1.1
Cc1c(C)n(CCc2ccccc2)c2ncnc(NCCCN(C)C)c12	1.0	0.63	2.1	.	i	-8	8	3	1.1
COc1ccccc1CN(C)C(=O)c1cc(S(=O)(=O)N2CCCCCC2)ccc1OC	1.2	.	.	.	i	.	-15	-23	-0.5
Cn1c(C(=O)NCCOc2ccccc2Cl)cc(=O)n(C)c1=O	1.2	0.72	-2.6	-3	.	1	4	4	-3.8
N#C/C(=C\c1cccc(O)c1)C(=O)Nc1ccc2c(c1)OCCO2	-0.1	0.71	4.3	5	i	23	-4	9	1.8
O=C(Nc1ccc(NC(=O)c2ccccc2F)cc1)c1ccccc1F	-2.9	0.64	-22	-10	i	-4	-1	20	2.4
CN(C)c1cccc(C(=O)NCC2CCCO2)c1 (stereo not drawn)	1.8	0.66	-1.9	17	.	-2	.	.	.
CCCN(CC(=O)Nc1ccccc1C)C(=O)/C=C/c1cccs1	0.1	0.67	3.3	.	i	-6	-7	-4	-1.7
O=C(CN1C(=O)NC2(CCc3ccccc32)C1=O)NCCc1ccccc1 (stereo not drawn)	2.7	0.72	1.4	.	i	-1	0	3	-0.2
CCc1ccc(NC(=O)CCNC(=O)Cn2ccc3ccccc3c2=O)cc1	2.4	0.67	-7.0	-25	i	-2	7	10	-1.9
O=C(NCCN1CCOCC1)c1ccccc1Oc1ccccc1	-2.0	0.74	0.0	0	.	0	.	.	.
O=c1c2ccccc2nc2n1CCCN2	-1.1	0.7	-244	-3	i	1	8	7	0.0
CCCCn1c(NC(C)CC)nc2c1c(=O)[nH]c(=O)n2C (stereo not drawn)	-3.0	0.7	-2.4	92*	.	-1	.	.	.
O=C1c2ccccc2C(=O)N1CCCn1ccnc1	-2.9	0.66	-0.9	-1	i	3	8	15	-2.9
CC(=O)Nc1ccc(C=NNc2ccc(S(=O)(=O)Nc3ccccc3C(=O)O)cc2[N+](=O)[O-])cc1	-1.3	0.68	18	48	.	-3	.	.	.
COc1ccc2c(CN3CCN(S(=O)(=O)c4cccs4)CC3)cc(=O)oc2c1	0.7	0.69	-13	.	i	5	-2	-12	-2.8
Cc1ccc(-c2noc(CNC(=O)COc3ccccc3C)n2)cc1	-3.3	0.64	0.9	-9	i	1	-16	-26	-2.6
CCOc1cc(/C=N/Nc2cccc(C(=O)O)c2)ccc1OCC(=O)N1CCCCC1	-4.4	.	.	.	i	-2	18	17	1.5
COc1ccc2nc3cccc(OC)c3nc2c1	-9.6	0.64	3.1	.	i	2	-26	-15	-13
CCOC(=O)N1CCN(C(=O)/C(=C/c2cccc3ccccc23)NC(=O)c2ccc(OC)c(OC)c2)CC1	-1.3	0.68	2.2	-13	i	-11	-12	-14	2.7
COc1cc(/C=C(\NC(=O)c2ccccc2)C(=O)NCCO)c([N+](=O)[O-])cc1OC	3.8	0.74	2.3	-15	.	-8	.	.	.
O=C(NCc1ccncc1)NC12CC3CC(CC(C3)C1)C2	-0.9	0.71	3.3	-2	i	-18	5	2	-3.2
CCOC(=O)[C@]12CCCC=C1N(CCC1=CCCCC1)C(=O)[C@H](CC(=O)N1CCN(C(=O)c3ccco3)CC1)C2	0.0	.	.	.	i	.	-12	-3	1.7
CN1CCN(S(=O)(=O)c2ccc(NC(=O)C(C)(C)C)cc2)CC1	-0.9	0.65	0.1	-9	i	-4	18	16	-10
NS(=O)(=O)c1ccc2c(c1)oc(=O)c1cc(S(N)(=O)=O)ccc12	1.5	0.71	2.6	-12	.	-1	8	8	6.1
CCOC(=O)[C@]12CCC=C1N(Cc1ccc(Cl)cc1Cl)C(=O)[C@H](CC(=O)NCC13CC4CC(CC(C4)C1)C3)C2	4.2	.	.	.	i	.	16	7	0.7
CN(C)/C=C/C(=O)c1cccc(Oc2ncccn2)c1	0.6	.	.	1	i	-2	0	-1	-1.1
CCC(C)(C)NC(=O)CCn1c(-c2ccccc2)cc(C(C)=O)c1C	0.8	0.68	1.4	-14	i	2	-6	-10	-2.0
CC(C)[C@H](N)c1nnc(SCC(=O)c2ccc(Cl)cc2)o1	-1.4	0.65	3.5	98*	.	0	.	.	.
c1ccc(C2[C@H]3CN(CC4CCCCC4)[C@H](c4ccccc4)C34CC2(c2ccccc2)C4)cc1 (stereo partly drawn)	11	.	1.2	-32	i	12	0	-10	4.3
C=CCNC(=S)NCC	-0.3	.	.	-20	i	-16	15	18	-1.2
COC1C(CO)OC(n2c3c(Cl)cccc3c3c4c(c5c6cccc(Cl)c6[nH]c5c32)C(=O)NC4=O)C(O)C1O (stereo not drawn)	85	.	.	.	.	6	8	12	-3.7
CC(CCC(=O)Nc1nncs1)C(=O)O (stereo not drawn)	0.5	0.69	1.8	-8	i	-4	2	16	7.3
COc1ccc(OC)c(-c2c[n+](=O)c3c(n2[O-])CCCC3)c1	-4.7	0.67	1.4	-11	.	-3	.	.	.
CN(c1ccc(C(=O)NC2CC3CCC2C3)cc1)S(C)(=O)=O (stereo not drawn)	-2.2	0.68	4.2	-8	.	4	.	.	.
COc1ccccc1NC(=O)CN(c1ccccc1F)S(C)(=O)=O	4.3	0.69	1.2	-15	.	1	.	.	.
O=C(Nc1ccc(F)cc1)c1csc(Cc2ccccc2)n1	-1.9	0.62	-1.7	-2	i	-3	6	7	5.4
Cc1ccc(CNC(=O)[C@]2(C)CCC[C@@]3(C)C4CC[C@@]5(C)C[C@]4(CCC32)CC5=O)cc1 (stereo partly drawn)	-2.1	.	0.6	-1	i	-2	-11	-1	-7.1
O=C(c1ccc(C(=O)N2CCCc3ccccc32)s1)N1CCCc2ccccc21	-0.5	0.69	6.6	-2	.	-1	.	.	.
O=C(c1ccc(O)cc1)c1ccc(C(=O)c2ccc(O)cc2)cc1	17	0.68	6.3	-13	.	8	.	.	.
COC(=O)c1ccccc1NC(=O)CN1CCC(C)CC1	1.7	0.61	0.7	-34	i	0	8	12	0.0
NC1=NC(=O)/C(=C/c2cn(Cc3ccccc3)c3ccccc23)S1	9.1	0.69	1.3	56	i	8	.	.	.
COc1ccc(CN2CCCN(S(=O)(=O)c3ccc(Br)cc3)CC2)cc1	0.9	0.65	-1.3	.	i	1	-22	-27	0.8

# Some of these compounds in order of formula weight, largest number first.
SMILES	HNF4A DNA FP	Ecoli growth	UCH37 DUB inh	ALR inh	FGF22 binding	B2AR ag	Ecoli rRNA inh	Ecoli rRNA inh OD600	Ecoli rRNA inh RFP
Cc1ccc(CNC(=O)[C@]2(C)CCC[C@@]3(C)C4CC[C@@]5(C)C[C@]4(CCC32)CC5=O)cc1 (stereo partly drawn)	-2.1	.	0.6	-1	i	-2	-11	-1	-7.1
CN(c1ccc(C(=O)NC2CC3CCC2C3)cc1)S(C)(=O)=O (stereo not drawn)	-2.2	0.68	4.2	-8	.	4	.	.	.
O=C(c1ccc(O)cc1)c1ccc(C(=O)c2ccc(O)cc2)cc1	17	0.68	6.3	-13	.	8	.	.	.
O=C(Nc1ccc(F)cc1)c1csc(Cc2ccccc2)n1	-1.9	0.62	-1.7	-2	i	-3	6	7	5.4

# Additional entries follow:
SMILES	HNF4A DNA FP	Ecoli growth	UCH37 DUB inh	ALR inh	FGF22 binding	B2AR ag	Ecoli rRNA inh	Ecoli rRNA inh OD600	Ecoli rRNA inh RFP
COc1ccc(-c2cc(C(=O)NCCCN3CCOCC3)c3ccccc3n2)cc1OC	-2.8	0.68	4.2	.	i	2	5	13	-1.5
CCC(=O)NC1(C(F)(F)F)C(=O)Nc2c1c(=O)[nH]c(=O)n2Cc1ccco1 (stereo not drawn)	-0.7	0.68	4.1	.	.	1	.	.	.
Cc1cccn2cc(CNC(=O)c3ccc(Br)o3)nc12	0.2	0.76	-0.9	.	i	-9	-1	12	5.7
Cc1nn(Cc2ccc([N+](=O)[O-])cc2)c(=O)n1-c1ccc(F)cc1	-1.3	0.68	1.9	-1	.	10	.	.	.
CCN1CCN(C(=O)c2cc3cc4cc(OC)ccc4nc3s2)CC1	2.4	0.7	-32	.	.	12	.	.	.
CC(C)=CC[N+]1(C)CCCCC1	-0.8	0.7	-0.1	-7	i	8	19	19	0.7
Nc1nc(SCC(=O)NCc2ccc(F)cc2)[nH]c(=O)c1NC(=O)c1ccc(Cl)cc1	2.4	.	.	5	.	1	.	.	.
CC1CN(S(=O)(=O)c2cccc(C(=O)NN3CCN(C)CC3)c2)CC(C)O1 (stereo not drawn)	-2.4	0.7	2.5	8	.	-7	.	.	.
COc1ccc(-n2ncc3c(NC(C)C)ncnc32)cc1	-2.2	0.69	2.5	-5	.	6	.	.	.
COc1ccc(C(=O)OC(C)C(=O)NC(C)CCc2ccccc2)cc1[N+](=O)[O-] (stereo not drawn)	2.4	0.7	4.5	2	i	-9	0	6	-1.4

# From PubChem BioAssay

# This is a subset (hit frequency here may not be typical).
